Screening results (PubChem BioAssay)
CSC inhib = cancer stem cell inhibition. cancer stem cell-like cells viability, luminescence. inhibition, % at 7.5 µM. 300,000 tested, 1.1% active;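 active means mean at 75% or more and at least half the replicates too; inconclusive means mean and replicates disagree; tested in HMLE shEcad cells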;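 further: 0% = median of negative and 100% = median of positive control wells; the first replicate is given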
HIV Env fusion = HIV envelope-mediated fusion inhibition | inhibition, % at 12.3 µM | 360,000 tested, 1.1% active | HeLa-JRFL Env/CEM21 cell fusion, luciferase | AID 651610;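 active means mean replicate inhibition score of at least 50 and every replicate individually at or above 50; inconclusive means only one of the two criteria met; inactive means mean below 50 and not all replicates reaching 50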;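 further: 0% = plate neutral controls and 100% = maraviroc near 300 nM; one replicate is shown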
Yeast UUG start = alters start codon recognition fidelity in yeast; activity score, % at 18.7 µM; S. cerevisiae UUG-firefly luciferase reporter, luminescence/redox ratio; 350,000 tested, 0.13% active;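 active means replicate mean at a twofold rise or more, about +100% in these data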;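 further: firefly luciferase made from a UUG start codon reports start codon fidelity; reporter light over untreated wells divided by growth signal over untreated wells; some hits fall short of that in this replicate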
Rce1 inh = yeast Ras-converting enzyme inhibition; Q03530; yeast membranes, quenched prenylated peptide cleavage fluorescence; calls only; 290,000 tested, 0.27% active;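 active means fall in fluorescence gain of 50% or more versus controls, with final raw signal at or below 3038400; inconclusive means same 50% fall but final raw signal above 3038400; inactive means fall in fluorescence gain under 50%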;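 further: plate controls were neutral control wells for no effect and wells lacking membranes for full effect; tested at 10 µM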
Target sequence (Q03530 whole entry, looked up): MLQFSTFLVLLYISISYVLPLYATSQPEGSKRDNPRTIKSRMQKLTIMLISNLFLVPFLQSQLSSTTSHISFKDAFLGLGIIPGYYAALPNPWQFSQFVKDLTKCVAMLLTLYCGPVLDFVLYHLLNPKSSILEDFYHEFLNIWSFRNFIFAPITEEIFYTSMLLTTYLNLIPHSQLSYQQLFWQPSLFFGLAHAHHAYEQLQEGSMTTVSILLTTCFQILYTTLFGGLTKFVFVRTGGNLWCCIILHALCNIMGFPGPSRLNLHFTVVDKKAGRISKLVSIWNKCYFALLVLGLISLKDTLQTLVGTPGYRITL
MT1-MMP act inh = MT1-MMP (human) activation inhibition; P50281; GFP/RFP ratio change, % at 20 µM; HT1080 RFP-PRO-GFP cells, GFP/RFP ratio fluorescence, overnight; percent of plate control window, DMSO zero; 360,000 tested, 0.061% active;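 active means GFP/RFP ratio change of at least 30% with cell ATP level not reduced by more than half and red fluorescence within 50% of control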; further: strong numbers were not always called active
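Assay system – RFP-PRO-GFP reporter HT1080 cells · Compound dosing – single dose of 20 µM compound, 1% DMSO final · Incubation – overnight compound exposure at 37 °C · Measure – GFP/RFP fluorescence ratio · Benchmarks – DMSO wells and RFP-L50D-GFP cells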
PABP polyA inh = blocks human PABP binding to poly(A) RNA. fluorescence polarization. AID 2014. inhibition, % at 35 µM. P11940. 290,000 tested, 1% active;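 active means 50% or more with normal probe brightness, or confirmed in later tests; inconclusive means above 50% with abnormal brightness, or retests that disagree; inactive means below 50% or failed in later tests; about a fifth of its hits are not listed in these tables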;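 further: calls also rest on retests at 20 µM and on dose response follow-up; controls were probe without protein and protein plus probe with vehicle; some compounds called inactive have numbers as strong as hits; many hits fall short of the cut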
eIF4H inh = inhibitors of RNA binding by human eIF4H; Q15056; eIF4H fluorescence polarization binding assay; inhibition, % at 35 µM; 290,000 tested, 0.94% active; AID 2012;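 active means 50% or more with normal probe brightness, or confirmed in later tests; inconclusive means above 50% with abnormal brightness, or retests that disagree; inactive means below 50% or failed in later tests; about a fifth of its hits are not listed in these tables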;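 further: calls also rest on retests at 20 µM and on dose response follow-up; 0% = protein and probe with vehicle and 100% = probe without protein; strong numbers were not always called active; many hits fall short of the cut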
MT1-MMP act inh RFP = second read-out of MT1-MMP act inh, no call of its own (marks repeat the call); RFP signal change, %; measured here: RFP expression control read;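 0 = vehicle wells; hits needed this value within 50% of zero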
Numbers without * were called inactive; i = inactive; ? = inconclusive; · = no result given; & = joins results of further samples.

SMILES | MT1-MMP act inh RFP | HIV Env fusion | PABP polyA inh | MT1-MMP act inh | eIF4H inh | Rce1 inh | CSC inhib | Yeast UUG start
COc1ccc(C(=O)N2CCCC(Nc3ccc(F)cc3)C2)cc1F (stereo unspecified) | -1 | · | 0 | 1 | -19 | i | -6 | -14
Cc1noc(C)c1S(=O)(=O)N(C)C[C@H]1Oc2ccc(NC(=O)NC(C)C)cc2C(=O)N([C@H](C)CO)C[C@@H]1C | 0 | -10 | · | -3 | · | · | 2 | 10
Cn1ncc2c(Nc3ccc([N+](=O)[O-])cc3)nc(Cl)nc21 | 1 | -10 | 9 | 2 | -3 | i | -5 | -22
O=C(NCc1ccccc1Cl)c1cc2c(s1)CS(=O)(=O)C2 | -2 | 5 | 5 | 0 | -6 | i | 9 | 3
CC(C)(C)NC(=O)COC(=O)c1snc(C(=O)NC2CCCCC2)c1N | -15 | 101* | -7 | 4 | 8 | i | 6 | -7
COc1ccc(C(=O)CN2C(=O)c3ccccc3C2=O)c(OC)c1 | 3 | -8 | -12 | 2 | 8 | i | -1 | -1
CC(O)(c1ccccc1)c1nc(-c2cccc(F)c2)cs1 (stereo unspecified) | -3 | 18 | · | 1 | · | · | · | -3
CCOc1ccccc1Nc1nc(-c2cccnc2)cs1 | -5 | -20 | 16 | -4 | 0 | i | -8 | -7
Cc1ccc(NS(=O)(=O)c2ccc(C(=O)NCCCN3CCCC3=O)cc2)cc1 | -6 | -2 | · | -4 | · | · | -10 | -7
COc1ccc(C2(O)C(=O)Nc3ccc(C)cc32)cc1 (stereo unspecified) | 2 | -1 | 0 | 2 | -9 | i | -12 | -17
COc1ccc(N=C2C(=O)Nc3c(C)cccc32)cc1 | 11 | · | -8 | 0 | 2 | i | · | -12
c1ccc(-n2cnnc2SCc2nc3ccccc3s2)cc1 | -2 | -105 | 39 | -21 | 8 | · | -3 | -23
CC(=O)c1cccc(NC(=O)N2CCC(NC(=O)C3CCCCC3)CC2)c1 | 3 | 2 | 0 | -3 | -6 | i | -13 | 13
COc1ccc(-c2nc(N)nc(N)n2)c(O)c1 | -4 | -38 | · | -3 | · | · | -16 | -19
Cc1ccc(Nc2nc(N)nc(CSc3nc(C)cc(C)n3)n2)cc1 | 1 | 37 | 4 | 1 | -2 | i | -2 | -12
N=C(N)SCc1cccc2ccccc12 | -7 | -11 | 0 | 2 | -5 | i | 5 | -22
O=C(CCn1c(=O)[nH]c2ccsc2c1=O)N1CCc2ccccc2C1 | 2 | -42 | 4 | 2 | -2 | i | 15 | -15
CCN1CCN(C(c2ccccc2OC)c2nnnn2C2CCCCC2)CC1 (stereo unspecified) | 6 | · | 9 | -3 | 1 | i | 5 | -8
COc1ccc(C(=O)Nc2ccccc2C(=O)Nc2ccccc2)cc1 | -1 | -100 | · | -10 | · | · | · | 15
Cc1sc2nc(CSC(C)C(=O)Nc3cc(S(C)(=O)=O)ccc3Cl)[nH]c(=O)c2c1C (stereo unspecified) | 2 | 1 | · | -11 | · | i | -4 | -11
Cc1ccc(-c2cc(C(F)(F)F)c(C#N)c(=O)[nH]2)cc1 | 0 | -25 | -19 | 1 | 0 | i | ? | -9
O=C(NCC(c1ccco1)N1CCN(c2ccccc2)CC1)OCc1ccccc1 (stereo unspecified) | 3 | -4 | 5 | 5 | 8 | i | · | ·
C/C=C/c1cc(CN2CCN(c3ccccc3)CC2)c(O)c(OC)c1 | 8 | 10 | 12 | 6 | -8 | i | 22 | -14
CC(=O)Nc1ccccc1C(=O)C(=O)Nc1cccc(C(=O)NCc2ccc(C)cc2)c1 | · | -7 | 4 | · | -3 | i | -19 | ·
CCC1CC(=O)CCN1S(=O)(=O)c1ccc(C)cc1 (stereo unspecified) | 3 | -4 | · | 0 | · | · | · | -8
CC/C(=N\NC(=O)COc1ccc(Br)cc1)c1ccc(OC)c(OC)c1 | -4 | 15 | 19 | 3 | -11 | i | -5 | -12
C[C@H]1CN([C@@H](C)CO)C(=O)c2cc(Br)cnc2O[C@H]1CN(C)C(=O)c1cccnc1 | 5 | -11 | · | 4 | · | · | · | -11&-18&-6
NS(=O)(=O)c1ccc(CCNC(=O)COC(=O)c2nc(Cl)ccc2Cl)cc1 | -1 | -1 | · | 4 | · | · | -12 | -9
CCN1CCN(CCC(=O)Nc2ccc(Br)c(C)c2)CC1 | 0 | 2 | 9 | 23 | -7 | i | -17 | -31
Cc1ccccc1CN1[C@@H](CC2CCCCC2)COCCS1(=O)=O | · | 4 | -3 | · | 3 | i | 9 | -11

Record cards (already shown). Screens in order: MT1-MMP act inh RFP | HIV Env fusion | PABP polyA inh | MT1-MMP act inh | eIF4H inh | Rce1 inh | CSC inhib | Yeast UUG start
Entry for CC(=O)Nc1ccccc1C(=O)C(=O)Nc1cccc(C(=O)NCc2ccc(C)cc2)c1 = · | -7 | 4 | · | -3 | i | -19 | ·
Entry for CCN1CCN(CCC(=O)Nc2ccc(Br)c(C)c2)CC1 = 0 | 2 | 9 | 23 | -7 | i | -17 | -31
Entry for CC/C(=N\NC(=O)COc1ccc(Br)cc1)c1ccc(OC)c(OC)c1 = -4 | 15 | 19 | 3 | -11 | i | -5 | -12
Entry for C[C@H]1CN([C@@H](C)CO)C(=O)c2cc(Br)cnc2O[C@H]1CN(C)C(=O)c1cccnc1 = 5 | -11 | · | 4 | · | · | · | -11&-18&-6
Entry for NS(=O)(=O)c1ccc(CCNC(=O)COC(=O)c2nc(Cl)ccc2Cl)cc1 = -1 | -1 | · | 4 | · | · | -12 | -9

Next entries:
SMILES | MT1-MMP act inh RFP | HIV Env fusion | PABP polyA inh | MT1-MMP act inh | eIF4H inh | Rce1 inh | CSC inhib | Yeast UUG start
CC(=O)c1cnc2c(-c3ccccc3)cnn2c1C | 8 | i | -1 | 3 | -5 | i | -10 | -3
Cc1c(O)ccc(/C=N/Nc2nc(-c3cccnc3)nc3ccccc23)c1O | -7 | 8 | 7 | -21 | -3 | i | 48 | -24
CC(=NNC(=O)c1cc(C)nc2ccccc12)c1ccc(N2CCOCC2)cc1 | 2 | 6 | · | 4 | · | · | -6 | 2
Brc1cc(Br)c2nc(-c3ccc(N4CCOCC4)cc3)ccc2c1 | 4 | · | -14 | -10 | 9 | · | · | -7
O=c1c2ccccc2c(C=NCCc2ccccc2)c(O)n1Cc1ccccc1 | -12 | · | -5 | -7 | -8 | i | 62 | ·
CCN(CC)c1ccc(/C=C/c2cc(-c3ccccc3)c3ccccc3n2)cc1 | 32 | -15 | ? | -69 | ? | i | 37 | -13
CN(CC(=O)Nc1ccc(N2CCOCC2)cc1)C(=O)CSc1ccc(F)cc1 | 0 | · | · | 3 | · | i | -12 | 15
CNC(=S)N(CCc1c(C)[nH]c2ccc(OC)cc12)Cc1cc(OC)c(OC)c(OC)c1 | -2 | -11 | 15 | 1 | 7 | i | -6 | -12
CC(C)(C)C(=O)Nc1ccc(C(=O)COC(=O)c2ccccn2)cc1 | 0 | 6 | · | 0 | · | · | -3 | -17
Cc1ccc(S(=O)(=O)N(Cc2c(F)cccc2Cl)C(=O)N2CCN(C)CC2)cc1 | 0 | 1 | · | -1 | · | i | -9 | -8
COc1ccccc1NC(=O)N(C)C[C@H]1Oc2ncc(Br)cc2C(=O)N([C@H](C)CO)C[C@H]1C | 4 | 42 | · | 3 | · | · | · | 5&15
COc1cc(OC)c2cc(C(=O)N[C@@H](Cc3ccccc3)C(=O)O)n(C)c2c1 | 1 | 19 | -14 | 1 | -4 | i | -5 | -14
O=C(NC1CCCC1)C(c1ccc(N2CCOCC2)cc1)N(Cc1ccco1)C(=O)c1ccco1 (stereo unspecified) | 0 | · | -7 | 1 | 3 | i | -7 | 1
CCOCCCN1CC(=O)N2[C@@H](Cc3c([nH]c4ccccc34)C2(C)C)C1=O | 0 | -13 | 15 | 2 | 1 | i | -5 | -8
CC(C)OC(=O)c1c(-c2ccc(C(C)C)cc2)csc1NC(=O)C1CCCO1 (stereo unspecified) | -10 | · | -4 | -2 | 3 | i | 69 | -10
Cc1ccc2[nH]c3c(N4CCN(Cc5ccccc5)CC4)ncnc3c2c1 | -12 | 97* | 1 | 15 | 1 | i | 23 | -3
CN(C)c1ccc(NC(=O)c2ccc(COc3cccc(Cl)c3)o2)cc1 | -3 | · | 7 | 0 | 2 | i | 6 | -11
N#Cc1ccc(N2CCN(c3ccc(F)cc3)CC2)cc1 | 1 | -17 | -3 | 14 | 2 | i | 0 | -5
O=C(c1ccc([N+](=O)[O-])cc1[N+](=O)[O-])n1cnc2ccccc21 | 1 | 20 | -4 | 3 | -3 | i | · | ·
O=S(=O)(c1ccc2c(c1)OCCO2)N1CCC(c2nc3ccccc3s2)CC1 | -22 | · | 3 | 4 | -5 | i | -10 | 8

2 entries from above, with each value named:
SMILES: N=C(N)SCc1cccc2ccccc12
- MT1-MMP act inh RFP: -7
- HIV Env fusion: -11
- PABP polyA inh: 0
- MT1-MMP act inh: 2
- eIF4H inh: -5
- Rce1 inh: i
- CSC inhib: 5
- Yeast UUG start: -22

SMILES: O=C(CCn1c(=O)[nH]c2ccsc2c1=O)N1CCc2ccccc2C1
- MT1-MMP act inh RFP: 2
- HIV Env fusion: -42
- PABP polyA inh: 4
- MT1-MMP act inh: 2
- eIF4H inh: -2
- Rce1 inh: i
- CSC inhib: 15
- Yeast UUG start: -15

New compounds follow.
SMILES | MT1-MMP act inh RFP | HIV Env fusion | PABP polyA inh | MT1-MMP act inh | eIF4H inh | Rce1 inh | CSC inhib | Yeast UUG start
Cn1cnnc1SCC(=O)c1ccc(OC(F)F)cc1 | 2 | · | 4 | 2 | -2 | i | -14 | -7
O=c1[nH]c2ccc(S(=O)(=O)N3CCCCC3)cc2[nH]1 | 0 | · | 2 | 2 | -5 | i | -2 | 1
Cc1nn(-c2ccccn2)c2c1C(c1ccncc1)C1=C(CC(C)(C)CC1=O)N2 (stereo unspecified) | -8 | · | -3 | 7 | -7 | i | -18 | ·
O=C1NC(c2ccccc2)=C(c2nc3ccccc3s2)C(c2ccc(O)cc2)N1 (stereo unspecified) | -7 | · | -4 | 8 | 1 | i | -7 | -1
COCCCNC(=S)Nc1cccc2ncccc12 | -6 | 7 | 3 | 3 | 19 | i | -9 | ·
CSc1ncccc1C(=O)OCC(=O)c1ccc(S(=O)(=O)N2CCCCC2)cc1 | -3 | -2 | · | -2 | · | i | -9 | -15
CCCNC(=O)COc1nc2ccccc2nc1N1CCOCC1 | 4 | · | 6 | -2 | 8 | i | · | 1
CCOc1ccc(OCCOCCN2CCCC2)cc1 | 0 | -12 | 28 | -2 | 20 | i | -11 | -7
CC1=C/C(=C(\c2ccc(O)c(C)c2)c2ccccc2S(=O)(=O)O)C=CC1=O | 0 | 8 | 16 | -9 | 4 | i | -7 | -3
CCOC(=O)C1CCCN(C(=O)c2ccc(S(=O)(=O)NCc3ccco3)cc2)C1 (stereo unspecified) | -6 | 11 | · | 1 | · | i | -11 | -5
COc1cccc(CCNC(=O)CCc2nnc(-c3ccc4c(c3)OCO4)o2)c1 | 7 | -12 | 12 | 5 | -1 | i | -7 | -14
COC(=O)c1nn(-c2cccc(C)c2)c2nnc(Cc3ccccc3)c(=O)n12 | 2 | -10 | 6 | 3 | 0 | i | -13 | ·
C=CCNc1nc(NCCCN2CCCC2=O)c2sc(-c3ccccc3)cc2n1 | 0 | -5 | · | -1 | · | · | · | -2
COc1ccc(Cl)cc1S(=O)(=O)Oc1ccc(NC(C)=O)cc1 | -4 | · | -9 | -3 | 2 | i | 5 | -12
Cc1ccc2nc(SCC(=O)NCCCN3CCCC3=O)[nH]c2c1 | 4 | · | · | 2 | · | · | -24 | -28

A portion of the library. The share of hits here may be higher or lower than overall.
